# Source: PubChem
# YB-1 expr inh: YB-1 expression inhibition; 30,000 tested, 0.37% active; U2OS, qRT-PCR YB-1 vs CDIP delta delta Cp, 16 h; active compounds read high; zero = DMSO, each unit about twofold; delta delta Cp (YB-1 minus CDIP) (test concentration not listed);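 active = delta delta Cp rounded down to an integer at or above 3, about 3 SD of DMSO wells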;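 note: higher means less YB-1 transcript or more CDIP transcript relative to DMSO; stock transfer was 100 nL into about 100 µL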
# MITF inhib: blocks MITF activity. TRPM1 promoter luciferase, luminescence, 24 h. inhibition, % (no concentration beside the values). 37,000 tested, 0.28% active;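 active = most replicates at 85% or more, or half of them and the mean; inconclusive = half reach 85% but not the mean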;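 note: human melanocyte line stably carrying TRPM1 promoter luciferase reporter; 0% = vehicle wells and 100% = a positive control; the first replicate is given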
# Shh pathway inh: Sonic Hedgehog pathway inhibition; Shh-LIGHT2 Gli-luciferase reporter, 30 h; inhibition, % (no concentration beside the values); 22,000 tested, 2.1% active;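 active = replicate mean of 65% or more; inconclusive = mean lower but half the replicates past it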;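 note: pathway switched on by Shh-conditioned medium diluted 1 in 25 in low serum; 100 nL library stock added to about 40 µL; 0% = median of neutral wells and 100% = positive control level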
# PD-1 reversal: activators reversing PD-1 mediated T-cell inhibition; primary human CD4 T cells, PD-L1 beads, CellTiter-Glo 96 h; activation, % (test concentration not listed); 29,000 tested, under 10 active;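 active = replicate mean of 50% or more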;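 note: 0% = median vehicle wells and 100% = positive control; 100 nL library stock added to about 50 µL; numbers are from one replicate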
# An asterisk follows results filed as active; ? = inconclusive; · = no result given.
SMILES	YB-1 expr inh	MITF inhib	Shh pathway inh	PD-1 reversal
Nc1c2cnc(N3CCCC3)nc2nc(=O)n1-c1ccc(Cl)cc1	-0.26	-10	-3	0.9
C[C@@H]1CN([C@@H](C)CO)C(=O)c2cc(NC(=O)Nc3ccc(C(F)(F)F)cc3)ccc2O[C@@H]1CN(C)S(=O)(=O)c1ccc(Cl)cc1	0.13	15	4	-1.2
CCOC(=O)CN(C)C1=NS(=O)(=O)c2ccccc21	·	-12	·	1.3
CCn1ncc(Br)c1C(=O)Nc1ccccc1C(=O)OC	·	54	·	-2.0
C[C@@H]1CN([C@H](C)CO)C(=O)c2cccc(NC(=O)C3CCCCC3)c2O[C@@H]1CN(C)S(=O)(=O)c1ccc(Cl)cc1	-0.26	-1	-35	-0.4
O/N=C(/C(=N/O)c1ccccc1)c1ccccc1	-0.00031	-12	-19	1.4
O=C(CCn1cnc2ccccc2c1=O)Nc1ccc(F)cc1	·	-27	·	1.7
C[C@H](CO)N1C[C@H](C)[C@@H](CN(C)S(=O)(=O)c2ccccc2)Oc2ccc(NC(=O)Nc3ccc4c(c3)OCO4)cc2C1=O	-0.1	-7	-5	1.1
COc1ccc(CN(C)C[C@@H]2Oc3c(NC(=O)C4CC4)cccc3C(=O)N([C@H](C)CO)C[C@H]2C)cc1	0.18	-11	-12	-2.6
COc1ccc(NC(=O)N(C)C[C@@H]2Oc3ccc(NC(=O)Nc4ccc(C(F)(F)F)cc4)cc3CC(=O)N([C@H](C)CO)C[C@@H]2C)cc1	0.2	-5	56	-0.4
Cc1cccc(Nc2ccccc2C(=O)O)c1C	-0.025	2	20	9.2
C[C@H](CO)N1C[C@H](C)[C@H](CN(C)C(=O)Nc2ccc3c(c2)OCO3)Oc2ccc(NC(=O)Nc3ccc4c(c3)OCO4)cc2C1=O	0.062	-9	-5	-0.1
CSc1ccccc1-n1nnnc1SCCSc1ccccc1-n1nnnc1SC	·	12	·	-1.0
Cc1ccc(S(=O)(=O)N(C)C[C@H]2Oc3c(NC(=O)NC4CCCCC4)cccc3C(=O)N([C@H](C)CO)C[C@H]2C)cc1	-0.0063	3	-3	-0.9
CSc1n[nH]c(NC(=O)Nc2ccccc2)c1S(=O)(=O)c1ccc(Cl)cc1	-0.077	1	-4	-1.0
Cc1cccc(OCC(=O)Nc2cc(C(F)(F)F)ccc2N2CCOCC2)c1	·	6	·	-5.6
Cc1nc(CSc2ncnc3sc4c(c23)CCC4)cs1	·	27	·	2.2
C[C@@H]1CCCCO[C@H](CN(C)S(=O)(=O)c2ccc(Cl)cc2)[C@@H](C)CN([C@H](C)CO)C(=O)c2cc(NC(=O)c3ccccc3)ccc2O1	0.063	7	24	·
C[C@H](CO)N1C[C@H](C)[C@@H](CN(C)C(=O)Nc2ccc3c(c2)OCO3)Oc2ccc(N(C)C)cc2C1=O	-0.2	-3	-6	0.3
C[N+]1(C/C=C2/COCO2)CCCCC1	-0.11	-14	-15	-0.6
O=C(NCCc1ccc(S(=O)(=O)N2CCCC2)cc1)c1cccc2ccccc12	-0.62	-7	?	-3.9
COc1ccc(CN(C)C[C@H]2Oc3ccc(NC(=O)CCCCCC(=O)Nc4ccccc4N)cc3CC(=O)N([C@@H](C)CO)C[C@@H]2C)cc1	0.42	10	·	0.9
C[C@H](CO)N1C[C@H](C)[C@H](CN(C)CC2CC2)Oc2ccc(NC(=O)C3CC3)cc2C1=O	0.15	6	-22	0.1
CCc1ccc(OCCSc2nc(C)cc(=O)[nH]2)cc1	·	-29	·	-1.2

# Ordered by number of heavy atoms (lowest first): 5 of the compounds above.
SMILES	YB-1 expr inh	MITF inhib	Shh pathway inh	PD-1 reversal
C[N+]1(C/C=C2/COCO2)CCCCC1	-0.11	-14	-15	-0.6
CCc1ccc(OCCSc2nc(C)cc(=O)[nH]2)cc1	·	-29	·	-1.2
C[C@H](CO)N1C[C@H](C)[C@H](CN(C)CC2CC2)Oc2ccc(NC(=O)C3CC3)cc2C1=O	0.15	6	-22	0.1
C[C@H](CO)N1C[C@H](C)[C@@H](CN(C)C(=O)Nc2ccc3c(c2)OCO3)Oc2ccc(N(C)C)cc2C1=O	-0.2	-3	-6	0.3
COc1ccc(CN(C)C[C@H]2Oc3ccc(NC(=O)CCCCCC(=O)Nc4ccccc4N)cc3CC(=O)N([C@@H](C)CO)C[C@@H]2C)cc1	0.42	10	·	0.9

# The listing continues:
SMILES	YB-1 expr inh	MITF inhib	Shh pathway inh	PD-1 reversal
COc1ccc(NC(=O)N(C)C[C@@H]2Oc3c(NC(=O)NC4CCCCC4)cccc3C(=O)N([C@@H](C)CO)C[C@H]2C)cc1	-0.48	6	-19	-0.1
Cc1cc(C)n(Cc2ccccc2)c(=O)c1C#N	-0.38	-2	·	0.1
C[C@@H]1CN([C@@H](C)CO)C(=O)c2cccc(NC(=O)c3ccc(-c4nccs4)cc3)c2O[C@@H]1CN(C)C(=O)NC1CCCCC1	0.25	6	?	-2.2
C[C@@H]1CN([C@H](C)CO)C(=O)Cc2cc(NS(=O)(=O)c3ccc(Cl)cc3)ccc2O[C@@H]1CN(C)C(=O)Nc1ccc2c(c1)OCO2	0.49	-13	-11	-0.8
CNC[C@H]1Oc2ccc(NS(C)(=O)=O)cc2C(=O)N([C@H](C)CO)C[C@H]1C	-0.18	7	-22	0.0
COc1ccc(S(=O)(=O)N(C)C[C@@H]2Oc3ccc(NC(=O)Nc4ccc(C(F)(F)F)cc4)cc3CC(=O)N([C@@H](C)CO)C[C@@H]2C)cc1	-0.027	50	-32	-3.7
Cc1noc(C)c1S(=O)(=O)N(C)C[C@@H]1Oc2ccc(NS(C)(=O)=O)cc2C(=O)N([C@H](C)CO)C[C@@H]1C	-0.31	-2	-32	1.5
CC(C)NC(=O)Nc1ccc2c(c1)CC(=O)N([C@@H](C)CO)C[C@H](C)[C@H](CN(C)Cc1ccc(-c3ccccc3)cc1)O2	0.92	13	0	-2.3
COc1ccc(OC)c(NC(=O)Cn2cc(C(=O)C3CCCCC3)c3ccccc32)c1	·	51	·	-2.8
COc1ccc(S(=O)(=O)N(C)C[C@@H]2Oc3ccc(NS(C)(=O)=O)cc3C(=O)N([C@H](C)CO)C[C@H]2C)cc1	0.31	-2	·	-0.4
C[C@H](CO)N1C[C@H](C)[C@H](CN(C)S(=O)(=O)c2cn(C)cn2)Oc2ccc(NC(=O)C3CC3)cc2CC1=O	-0.59	4	7	1.7
COc1ccc(CN(C)C[C@@H]2Oc3ccc(NC(=O)CCC(F)(F)F)cc3CC(=O)N([C@@H](C)CO)C[C@@H]2C)cc1	0.15	-13	·	-1.1
CC(Sc1nc2ccccc2[nH]1)c1nc2ccccc2[nH]1 (stereo not given)	·	-23	·	-0.2
C[C@@H]1CN([C@H](C)CO)C(=O)Cc2cc(NC(=O)Nc3ccc(C(F)(F)F)cc3)ccc2O[C@@H]1CN(C)Cc1ccc2c(c1)OCO2	-0.18	26	34	-9.0
C[C@H]1CN([C@@H](C)CO)C(=O)c2cc(NS(=O)(=O)c3cn(C)cn3)ccc2O[C@@H]1CN(C)C(=O)Nc1ccccc1	0.57	-2	·	-0.1
CC(C)NC(=O)Nc1cccc2c1O[C@H](CN(C)S(=O)(=O)c1ccccc1)[C@@H](C)CN([C@H](C)CO)C2=O	0.17	4	16	·
C[C@@H]1CCCCO[C@H](CN(C)C(=O)CCCN(C)C)[C@@H](C)CN([C@H](C)CO)C(=O)c2cc(NC(=O)Nc3ccc(C(F)(F)F)cc3)ccc2O1	-0.019	-21	3	2.3
CC1OC(OC2CCC3(C)C(CCC4(C)C3CC=C3C5CC(C)(C)CCC5(C(=O)OC5OC(CO)C(OC6OCC(OC7OC(CO)C(O)C(O)C7O)C(OC7OCC(O)C(O)C7O)C6O)C(O)C5O)CCC34C)C2(C)C)C(O)C(O)C1OC1OCC(O)C(O)C1O (stereo not given)	-0.051	14	-16	-0.6
C[C@@H]1CN([C@H](C)CO)C(=O)c2cccc(NC(=O)C3CC3)c2O[C@H]1CN(C)S(C)(=O)=O	-0.023	-9	3	2.7
COc1ccc(CN(C)C[C@@H]2OCCCC[C@@H](C)Oc3ccc(NC(=O)Nc4ccc(OC)cc4)cc3C(=O)N([C@H](C)CO)C[C@@H]2C)cc1	0.32	7	35	0.2
C[C@@H]1CN([C@H](C)CO)C(=O)Cc2cc(NC(=O)Nc3ccccc3)ccc2O[C@H]1CN(C)Cc1ccccc1	0.14	8	-25	·
Cc1noc(C)c1NC(=O)N(C)C[C@@H]1Oc2c(NC(=O)Nc3ccccc3)cccc2C(=O)N([C@H](C)CO)C[C@H]1C	-0.052	-14	-31	0.2
CS(=O)(=O)N(CC(=O)Nc1ccccc1)c1cccc(F)c1	·	-1	·	2.0
CC(C)(C)NS(=O)(=O)c1ccc(OCC(=O)N2CCOCC2)cc1	·	-4	·	1.8

# New compounds follow:
# Order of results: YB-1 expr inh | MITF inhib | Shh pathway inh | PD-1 reversal
Cc1ccc(NC(=O)COc2ccc(I)cc2)c(C(=O)O)c1
    · | -11 | · | 1.8
COC(=O)c1ccccc1NC(=O)COc1ccc([N+](=O)[O-])c(C)c1
    · | -16 | · | 1.9
Oc1cc(O)c2c(c1)OC(c1ccc(O)c(O)c1)C(O)C2 (stereo not given)
    1.1 | 2 | -27 | 4.5
CC(C)NC(=O)Nc1ccc2c(c1)C(=O)N([C@H](C)CO)C[C@@H](C)[C@H](CN(C)S(=O)(=O)c1cccs1)O2
    0.38 | -1 | · | 3.2
COc1ccc(N(CC(=O)N2CCN(c3ccccc3F)CC2)S(C)(=O)=O)c(OC)c1
    · | 5 | · | 2.1
COc1ccc(NC(=O)C(C)Oc2cc(C)c(Cl)c(C)c2)c([N+](=O)[O-])c1 (stereo not given)
    · | -24 | · | -0.2
COc1cc([N+](=O)[O-])ccc1NC(=O)CCN1C(=O)C2C3C=CC(C4CC34)C2C1=O (stereo not given)
    · | 15 | · | 0.8
O=C(Oc1ccc(-c2ccccc2)cc1)c1cccs1
    0.27 | -12 | 4 | -0.2
Cc1ccc(S(=O)(=O)Nc2ccc3c(c2)C(=O)N([C@@H](C)CO)C[C@H](C)[C@@H](CN(C)C(=O)NC(C)C)O3)cc1
    0.34 | -4 | · | 1.9
C[C@@H]1CCCCO[C@H](CN(C)Cc2ccncc2)[C@@H](C)CN([C@H](C)CO)C(=O)c2cc(NC(=O)Nc3ccc(F)cc3)ccc2O1
    -0.2 | -11 | · | 0.2
C[C@H](CO)N1C[C@H](C)[C@@H](CN(C)Cc2ccncc2)Oc2ccc(NC(=O)CCC(F)(F)F)cc2C1=O
    -0.4 | 3 | -4 | 1.1
C[C@@H]1CN([C@H](C)CO)C(=O)Cc2cc(NS(=O)(=O)c3ccccc3)ccc2O[C@H]1CN(C)S(=O)(=O)c1ccccc1
    5.1* | -1 | -47 | ·
C[C@@H]1CN([C@H](C)CO)C(=O)c2cccc(NS(=O)(=O)c3ccccc3)c2O[C@H]1CN(C)C(=O)Nc1ccc(C(F)(F)F)cc1
    -0.69 | -4 | 21 | ·
C[C@@H]1CN([C@@H](C)CO)C(=O)c2cc(NC(=O)Cc3cn(C)c4ccccc34)ccc2O[C@@H]1CN(C)C(=O)Nc1ccc2c(c1)OCO2
    0.18 | 6 | · | 0.3
Cc1ccc(S(=O)(=O)N(C)C[C@H]2Oc3c(cccc3N(C)C)C(=O)N([C@@H](C)CO)C[C@@H]2C)cc1
    0.012 | 16 | 12 | ·
Cc1nnc(SCC(=O)Nc2ccc([N+](=O)[O-])cc2O)s1
    · | -17 | · | 4.0
C[C@H]1CN([C@@H](C)CO)C(=O)c2cc(NC(=O)C3CC3)ccc2O[C@@H]1CN(C)Cc1ccccc1
    0.25 | -9 | · | ·
COc1ccc(S(=O)(=O)N(C)C[C@H]2Oc3ccc(NC(=O)Nc4cccc5ccccc45)cc3C(=O)N([C@H](C)CO)C[C@H]2C)cc1
    0.43 | -4 | 14 | 0.3
Cc1ccc2oc(-c3ccc(C)c(NC(=O)COc4ccc(Br)cc4)c3)nc2c1
    · | -21 | · | 3.5
O=C(NCc1ccccn1)C(=O)Nc1ccccc1F
    · | -48 | · | 3.8
C[C@H]1CN([C@@H](C)CO)C(=O)c2cc(NS(=O)(=O)c3cn(C)cn3)ccc2O[C@@H]1CN(C)Cc1ccc(-c2ccccc2)cc1
    0.019 | 7 | -13 | 1.4
COc1cc(C[C@H]2CO[C@H](c3ccc(O[C@@H]4O[C@H](CO)[C@@H](O)[C@H](O)[C@H]4O)c(OC)c3)[C@H]2CO)ccc1O
    -0.13 | · | -10 | ·
COc1ccc(S(=O)(=O)Nc2ccc3c(c2)C(=O)N([C@H](C)CO)C[C@@H](C)[C@@H](CN(C)S(=O)(=O)c2cn(C)cn2)O3)cc1
    -0.15 | 2 | -15 | 1.2
C[C@H](CO)N1C[C@H](C)[C@H](CN(C)S(=O)(=O)c2ccccc2)Oc2ccc(NC(=O)Nc3cccc4ccccc34)cc2C1=O
    -0.052 | -30 | · | -1.7

# These rows are one share of the data; rates above refer to the full screens.
